High-throughput results: PubChem, National Center for Advancing Translational Sciences (NCATS)
Cruzain Triton – cruzain (T. cruzi) inhibition with detergent; P25779; purified cruzain, Z-FR-AMC fluorescence, 0.01% Triton; Potency, µM, for inactives: max response, negative = inhibition, usual class: inhibitors; 200,000 tested, 0.43% active; AID 1478;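 also: plate controls were neutral wells for no effect and buffer without enzyme for full effect; nearly all actives have a fitted effect of over 40% in size; top concentration of the series not given in the record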
Target sequence (P25779 123-467 limits assumed): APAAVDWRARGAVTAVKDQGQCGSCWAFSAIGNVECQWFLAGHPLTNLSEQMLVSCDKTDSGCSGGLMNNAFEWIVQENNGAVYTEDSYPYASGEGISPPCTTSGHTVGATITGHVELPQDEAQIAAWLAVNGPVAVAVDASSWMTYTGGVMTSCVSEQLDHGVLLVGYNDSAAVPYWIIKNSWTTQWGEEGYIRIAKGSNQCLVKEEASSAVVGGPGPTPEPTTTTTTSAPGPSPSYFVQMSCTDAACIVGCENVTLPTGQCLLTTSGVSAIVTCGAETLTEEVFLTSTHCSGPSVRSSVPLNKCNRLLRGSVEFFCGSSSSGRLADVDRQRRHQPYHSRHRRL
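Purified cruzain (1.5 nM final) was preincubated with compounds for 15 min at room temperature in 100 mM sodium acetate pH 5.5, 5 mM DTT, 0.01% Triton X-100. Reaction started with 2 uM Z-FR-AMC; AMC fluorescence change over 60 s gave activity.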
StopGo reporter – lowers the luciferase signal of an FMDV 2A StopGo reporter; human cells with a luciferase reporter of 2A StopGo recoding; control for the full effect not named in the record; 410,000 tested, 1.2% active; Potency, µM (top dose mostly 57.9 µM), without a hit: at the highest dose signal change, negative = less light; active = well fitted falling curve with a large enough effect; inconclusive = small, poorly fitted or top-dose-only effect; inactive = no such curve, though single readings can be large or run the other way; tested in HEK293T cells; also: % is scaled to controls: 0 for no effect and ±100 for the full control effect; nearly all actives have a fitted effect of over 45% in size; luciferase light after 4 h
SARS PLP yeast – blocks SARS-CoV papain-like protease in a yeast assay; 330,000 tested, 0.19% active; S. cerevisiae expressing SARS-CoV PLpro, growth rescue; control for the full effect not named in the record; Potency, µM (series often up to 32.9 µM), inactives show top-dose activity, positive = growth rescue; AID 485353; active means well fitted rising curve with a large enough effect; inconclusive means small, poorly fitted or top-dose-only effect; inactive means no such curve, though single readings can be large or run the other way; also: 0% is about no effect; nearly all actives have a fitted effect of over 55% in size; growth read by luminescence after 48 h
MARV entry inh – blocks Marburg virus binding to or entry into cells; Marburg virus pseudotyped entry inhibition, cell reporter; control for the full effect not named in the record; about a third of the inactives were read at about 46 µM; Potency, µM (doses to about 37.8 µM), for the others: top-dose activity change, negative = inhibition, hits mostly inhibitors; 300,000 tested, 1.8% active; active = well fitted inhibition curve with a large enough effect; inconclusive = small, poorly fitted or top-dose-only effect, or effect the other way; inactive = flat fitted curve, though single readings scatter; tested in HEK293 cells; about a fifth of its hits are not listed in these tables; also: % is scaled to controls: 0 for no effect and ±100 for the full control effect; luciferase read-out
NS1 inh – inhibitors of influenza NS1 protein function; S. cerevisiae slowed by influenza A NS1, growth recovery by OD600; Potency, µM (highest dose often 46.1 µM), for the others: at the top dose activity, positive = more growth; 270,000 tested, 0.4% active; active means well fitted rising curve with a large enough effect; inconclusive means small, poorly fitted or top-dose-only effect; inactive means no such curve, though single readings can be large or run the other way; also: nearly all actives have a fitted effect of over 50% in size
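OD600 was taken as the measure of yeast growth restored by compound in an NS1-expressing S. cerevisiae strain. Cells had been washed out of glucose medium and diluted 1:100 into galactose -URA medium, pH 6.0.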
Cruzain inh noDet – inhibitors of Trypanosoma cruzi cruzain without detergent; Potency, µM, for inactives: max response, negative = inhibition, hits mostly inhibitors; 200,000 tested, 2.3% active; purified cruzain, Z-FR-AMC fluorescence, no detergent; AID 1476; P25779;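 also: plate controls were enzyme without inhibitor for no effect and buffer without enzyme for full effect; nearly all actives have a fitted effect of over 40% in size; top concentration of the series not given in the record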
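Purified cruzain at 1.5 nM, pre-incubated 15 min with compound at room temperature in 100 mM sodium acetate pH 5.5, 5 mM DTT, 0.00005% Triton X-100. Reaction started with 2 uM Z-FR-AMC; AMC fluorescence increase over 60 s gives rate.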
LASV entry inh – inhibitors of Lassa virus binding or cell entry. 300,000 tested, 1.2% active. Potency, µM (top dose mostly 37.9 µM), for the others: at the top dose activity change, negative = inhibition, most hits filed as inhibitors. Lassa virus pseudotype entry inhibition, cell reporter; control for the full effect not named in the record. AID 540256; active means well fitted inhibition curve with a large enough effect; inconclusive means small, poorly fitted or top-dose-only effect, or effect the other way; inactive means flat fitted curve, though single readings scatter; tested in HEK293 cells; also: % is scaled to controls: 0 for no effect and ±100 for the full control effect; nearly all actives have a fitted effect of over 50% in size; luciferase read-out
RE007 growth inh – less growth of the S. pombe RE007 Vpr strain; S. pombe RE007 Vpr strain, BacTiter-Glo ATP luminescence, 24 h; control for the full effect not named in the record; Potency, µM (titrated, usually from 92.2 µM), for the others: at the highest dose activity change, negative = less growth; 360,000 tested, 0.21% active; active = well fitted falling curve with a large enough effect; inconclusive = small, poorly fitted or top-dose-only effect; inactive = no such curve, though single readings can be large or run the other way;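 also: % is scaled to controls: 0 for no effect and ±100 for the full control effect; nearly all actives have a fitted effect of over 50% in size; the assay follows cell death caused by Vpr and the record does not say whether a fall means rescue or toxicity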
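Fission yeast RE007 carrying one integrated HIV-1 vpr copy, seeded at OD 0.01 in PMG+AL medium with 23 nL pinned compound. Grown 24 h at 30 degrees; viability read by BacTiter-Glo luminescence after 5 min.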
Active calls of the source: *; u = inconclusive; x = no result given; & = joins results of further samples; [ ] = another dose, or the depositor's remark. Unless noted, calls follow the shape of the dose curve; as a rule, active = well fitted curve in the direction sought with a large enough effect; inconclusive = small, poorly fitted or top-dose-only effect, or another doubt; inactive = no such curve, though single readings can be large; an effect the other way counts as inactive or inconclusive. Potency is read from the fitted curve at half-maximal effect. An excerpt (hit frequency here may not be typical).

Letters: A = Cruzain Triton; B = StopGo reporter; C = SARS PLP yeast; D = MARV entry inh; E = NS1 inh; F = Cruzain inh noDet; G = LASV entry inh; H = RE007 growth inh
COc1ccc2c(CNCCc3ccccc3OC)c(C(=O)O)n(Cc3ccc(F)cc3Cl)c2c1
  A = -7.3%	B = -5%	C = x	D = x	E = x	F = u	G = -12%[46.1 µM]	H = x

CC(C)(C(=O)c1cccnc1)c1cccnc1
  A = -2.5%	B = -24%	C = x	D = x	E = x	F = -7%	G = x	H = -3%

CCCc1cc(C(N)=S)ccn1
  A = 2.5%&-0.7%	B = -4%&-10%	C = -5%	D = x	E = -3%	F = -2%&-4%	G = x	H = -4%

CCN(CC)S(=O)(=O)c1ccc(C(=O)O)cc1
  A = x	B = -2%	C = 3%	D = -10%&-10%[46.1 µM]	E = 9%	F = x	G = 6%[46.1 µM]	H = 1%

Cc1nc2nc(NC(=O)c3cccc(Cl)c3)[nH]n2c(=O)c1Cc1ccccc1
  A = 0.3%	B = -1%	C = x	D = 20%[46.1 µM]	E = x	F = -4%	G = 1%[46.1 µM]	H = x

CCOC(=O)Nc1ccc(NCc2ccc(F)cc2)nc1N
  A = -6.1%	B = 0%	C = x	D = u	E = u	F = 6%	G = u	H = -12%

CCN(CC)CCOC(=O)C(c1ccccc1)c1ccccc1
  A = -0.9%&1.9%&-3.5%	B = -20%&16%	C = -3%	D = -35%&-35%&-35%&-35%&-35%&-35%&-35%	E = -6%	F = -3%&-4%&7%	G = 1%	H = -6%[18.4 µM]

COc1c(O)cc2c(c1O)[C@@H]1O[C@H](CO)[C@@H](O)[C@H](O)[C@H]1OC2=O
  A = x	B = 6%	C = 1%	D = x	E = 4%	F = x	G = x	H = -4%

C/C=C(/C)C(=O)O[C@@H]1c2cc3c(c4c2[C@@]2(CO4)C(=O)C(OC)=C(OC)C=C2C[C@@H](C)[C@H]1C)OCO3
  A = x	B = -15%	C = 3%	D = x	E = -11%	F = x	G = x	H = -13%

COc1cc(C(=O)NC(c2ccccc2Cl)c2cc(Cl)c3cccnc3c2O)cc(OC)c1OC (centres undefined)
  A = 0.3%	B = -11%	C = x	D = x	E = x	F = u	G = u	H = x

COc1ccc(Sc2ccc(NC(=O)c3ccccc3Cl)cc2C#N)cc1
  A = 3.6%	B = -18%	C = 1%	D = u	E = 13%	F = u	G = u	H = 0%

CCC(Cc1c(I)cc(I)c(N)c1I)C(=O)O (centres undefined)
  A = -8.9%	B = -15%&7%	C = x	D = x	E = x	F = -11%	G = x	H = 1%[18.4 µM]

COc1cc(C(=O)NCCCCCC(=O)O)cc(OC)c1OC
  A = 3.3%	B = -5%	C = 0%	D = 3%	E = -3%	F = 0%	G = x	H = -17%[18.4 µM]

Cc1ccsc1/C=C/C1=NCCCN1C
  A = -3.2%&-6.3%	B = 0%&-18%&-24%&9%	C = -9%&4%	D = 16%&16%&16%&16%&16%&16%&16%	E = 0%	F = -4%&4%	G = -16%	H = -4%

CC(C)(C)c1ccc(S(=O)(=O)c2cnc(SCC(=O)Nc3ccc(F)c(Cl)c3)[nH]c2=O)cc1
  A = 20µM*	B = -8%	C = x	D = -1%[46.1 µM]	E = x	F = -3%	G = x	H = x

Cc1cc(O)c2c(c1)C(=O)c1cccc(O)c1C2=O
  A = 2.8%&3.4%&-0.1%&0.5%	B = 8%	C = 7%	D = 24%&24%&24%&24%&24%	E = 11%	F = 10%&-5%&-6%&-3%	G = -3%	H = x

CN=C(N)NC(=O)Nc1c(C)cccc1C
  A = x	B = -16%	C = 1%	D = 6%&6%[14.2 µM]	E = 0%	F = x	G = 3%	H = 11%

CCOC(=O)Nc1ccc2c(c1)N(C(=O)CCN1CCOCC1)c1ccccc1S2
  A = -2.3%&1.5%	B = -8%&-11%	C = 0%&0%&-2%	D = -4%&-4%[46.1 µM]	E = 5%&2%	F = -5%&-3%	G = u	H = -11%

Cc1ccc(CNC(=O)C2CCN(S(=O)(=O)c3c(C)noc3/C=C/c3ccccc3F)CC2)o1
  A = -3.1%	B = -8%	C = x	D = x	E = x	F = -8%	G = -15%[46.1 µM]	H = x

C#C[C@]1(O)CC[C@H]2[C@@H]3CCC4=CC(=O)CC[C@@H]4[C@H]3CC[C@@]21CC
  A = -1.3%	B = u	C = -2%&-4%	D = x	E = 11%	F = 0%	G = x	H = 20%

COc1cc(C)nc(-n2nc(C)cc2OC)n1
  A = -5.1%&1.0%	B = -21%	C = 0%	D = 3%	E = u	F = 11%&-3%	G = 6%	H = 5%

COc1cc2c(c(OC)c1OC)-c1c(cc(OC)c(OC)c1OC)C[C@H](C)[C@H](C)C2
  A = x	B = -17%	C = -3%	D = x	E = -11%	F = x	G = x	H = 8%

NC(=O)c1ccc(-c2nc(-c3ccc4c(c3)OCO4)c(-c3ccccn3)[nH]2)cc1
  A = -7.9%	B = -4%	C = x	D = x	E = x	F = -4%	G = 6.3µM*	H = x

CN1CCN(CCCN2c3ccccc3Sc3ccc(S(=O)(=O)N(C)C)cc32)CC1
  A = -0.4%	B = u	C = x	D = x	E = x	F = -8%	G = x	H = -6%[18.4 µM]

O=C(NCCN1CCOCC1)c1ccc(Cl)cc1
  A = 4.4%	B = -21%	C = 1%	D = u	E = 7%	F = -6%	G = u	H = 2%

CCOc1ccc(NC(=S)N2CCC(C(O)(c3ccccc3)c3ccccc3)CC2)cc1
  A = -2.8%	B = -25%	C = 15%	D = u	E = u	F = 3%	G = -1%	H = -4%

CN1CCN(c2c(F)cc3c(=O)c(C(=O)O)cn4c3c2SCC4)CC1
  A = -4.8%	B = -21%	C = -4%&3%	D = -1%[46.1 µM]	E = 2%	F = -1%	G = u	H = -9%

CCOc1ccccc1NC(=O)CSc1nc2ccccc2c2nc(CCn3cncc3C)nn12
  A = 0.2%	B = -28%	C = x	D = x	E = x	F = -3%	G = u	H = x

COc1ccc(Cn2c(CCC(=O)Nc3cccc(OC)c3)nc3cccnc32)cc1
  A = -0.2%	B = -15%	C = x	D = 2%[46.1 µM]	E = x	F = 23%	G = u	H = x

Cc1cc(NC(=O)C2CCN(S(=O)(=O)c3ccc4[nH]c(=O)oc4c3)CC2)ccc1Br
  A = -1.4%	B = u	C = x	D = x	E = x	F = -19%	G = u	H = x

The listing continues.
Each structure is followed by: Cruzain Triton | StopGo reporter | SARS PLP yeast | MARV entry inh | NS1 inh | Cruzain inh noDet | LASV entry inh | RE007 growth inh
- CCCCOC(=O)c1ccc(N)cc1
 : 0.3%&-2.1%&-2.0%&-5.3% | 52%&47%[activator] | -3% | 4%&4%&4%&4%&4%&4%&4% | -10% | 18%&-4%&-2%&-8% | 4% | 1%[18.4 µM]
- O=C1c2ccccc2C(=O)c2c(O)c(O)cc(O)c21
 : u | -21%&-12% | -11% | x | x | -14%&-9% | x | u
- Cc1cc(Cl)ccc1NC(=O)Cn1nc(C)c2c(C)n(-c3ccccc3)nc2c1=O
 : -9.9% | -18% | x | x | x | 2% | 24%[46.1 µM] | x
- CN=C(NC#N)Nc1ccc(C2=NNC(=O)CC2C)cc1 (centres undefined)
 : -4.5% | -15% | x | 23%&23%&23%&23%&23%&23%&23% | -6% | 11% | x | x
- COc1ccc(S(=O)(=O)Nc2nnc(CC(C)C)s2)cc1
 : -1.9% | 56%[activator] | -9% | 2%&2%&2% | -6% | 3% | 0% | -15%
- COc1ccc([C@@H]2CNC(=O)C2)cc1OC1CCCC1
 : 1.8%&-1.2%&0.6%&4.6% | 0%&-28%&-5% | x | -39%&-39%&-39%&-39%&-39% | x | 12%&14%&2%&-2% | x | x
- OCC(O)CN1CCN(c2ccccc2)CC1 (centres undefined)
 : 8.2%&1.9% | -15%&7% | 15% | 15%&15%&15%&15%&15% | 0% | 4%&-7% | -27% | -8%
- CCC12CCCN3CCc4c(n(c5ccccc45)C(O)(C(=O)OC)C1)C32 (centres undefined)
 : x | -19% | -2% | x | 3% | x | x | -22%
- COc1ccc(NC(=O)C2CCCN(c3nnc(C)c4c(C)n(-c5ccccc5)nc34)C2)cc1Cl (centres undefined)
 : -13% | -28% | x | x | x | 1% | u | x
- COc1cc(NC(=O)c2cc(C3CC3)on2)c(OC)cc1Cl
 : -6.0% | -21% | 7% | x | 3% | -1% | x | -5%

By substructure: the entries above containing a Cl atom
Each structure is followed by: Cruzain Triton | StopGo reporter | SARS PLP yeast | MARV entry inh | NS1 inh | Cruzain inh noDet | LASV entry inh | RE007 growth inh
- COc1ccc2c(CNCCc3ccccc3OC)c(C(=O)O)n(Cc3ccc(F)cc3Cl)c2c1
 : -7.3% | -5% | x | x | x | u | -12%[46.1 µM] | x
- Cc1nc2nc(NC(=O)c3cccc(Cl)c3)[nH]n2c(=O)c1Cc1ccccc1
 : 0.3% | -1% | x | 20%[46.1 µM] | x | -4% | 1%[46.1 µM] | x
- COc1cc(C(=O)NC(c2ccccc2Cl)c2cc(Cl)c3cccnc3c2O)cc(OC)c1OC (centres undefined)
 : 0.3% | -11% | x | x | x | u | u | x
- COc1ccc(Sc2ccc(NC(=O)c3ccccc3Cl)cc2C#N)cc1
 : 3.6% | -18% | 1% | u | 13% | u | u | 0%
- CC(C)(C)c1ccc(S(=O)(=O)c2cnc(SCC(=O)Nc3ccc(F)c(Cl)c3)[nH]c2=O)cc1
 : 20µM* | -8% | x | -1%[46.1 µM] | x | -3% | x | x
- O=C(NCCN1CCOCC1)c1ccc(Cl)cc1
 : 4.4% | -21% | 1% | u | 7% | -6% | u | 2%
- Cc1cc(Cl)ccc1NC(=O)Cn1nc(C)c2c(C)n(-c3ccccc3)nc2c1=O
 : -9.9% | -18% | x | x | x | 2% | 24%[46.1 µM] | x
- COc1ccc(NC(=O)C2CCCN(c3nnc(C)c4c(C)n(-c5ccccc5)nc34)C2)cc1Cl (centres undefined)
 : -13% | -28% | x | x | x | 1% | u | x
- COc1cc(NC(=O)c2cc(C3CC3)on2)c(OC)cc1Cl
 : -6.0% | -21% | 7% | x | 3% | -1% | x | -5%
